# Screens: PubChem, several laboratories
# HNF4A DNA FP – change in binding of human HNF4 alpha to DNA. P41235. HNF4a-FITC DNA binding, fluorescence polarization, 1 h. activity change, % at 10 µM. 0.3% of 360,000 active. AID 1224865; in the data active means activity change above about 30%, passing the limit was not always enough;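 further: controls were the assay level and a saturating level of protein; the project sought stronger binding though the title names inhibitors; some compounds called inactive have numbers as strong as hits; positive values seem to mean higher polarization but the record does not say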
# UCH37 inh – human UCH37 deubiquitinating enzyme inhibition. Q9Y5K5. purified proteasome/UCH37, Ub-AMC cleavage fluorescence. inhibition, % (no concentration beside the values). 0.33% of 330,000 active. AID 588478;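 active means mean of two replicates above 20%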;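 further: 0% = compound-free wells with enzyme and 100% = wells lacking proteasome; stock transfer was 100 nL into about 20 µL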
# Target sequence (Q9Y5K5 whole entry, looked up): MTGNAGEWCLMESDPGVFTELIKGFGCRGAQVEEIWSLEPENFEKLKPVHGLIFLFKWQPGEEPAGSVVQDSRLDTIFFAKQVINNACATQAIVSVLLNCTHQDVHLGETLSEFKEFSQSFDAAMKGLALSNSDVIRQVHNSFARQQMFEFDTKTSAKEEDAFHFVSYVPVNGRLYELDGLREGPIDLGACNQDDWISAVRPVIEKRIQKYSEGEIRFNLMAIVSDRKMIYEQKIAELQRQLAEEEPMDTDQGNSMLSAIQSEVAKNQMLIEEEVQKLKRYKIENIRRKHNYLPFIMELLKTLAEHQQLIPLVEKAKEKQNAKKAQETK
#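 Material: human UCH37 enzyme supplied as purified proteasome complex. Measure: % inhibition of Ub-AMC cleavage fluorescence. Medium: pH 7.4 Tris-HCl (50 mM) with ovalbumin, ATP-MgCl2, DTT. Times: 30 min preincubation with enzyme, 25 min cleavage at room temperature. Detection: AMC fluorescence intensity at 355/460 nm.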
# AF4-AF9 inh – blocks AF4 peptide binding to human AF9. AlphaScreen, biotin-AF4 peptide binding to FLAG-AF9. P42568. inhibition, % at 10 µM. 0.47% of 350,000 active;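 active means every replicate reaching a set inhibition limit, whatever the replicate mean, cut at about 25% in these data; inconclusive means mean inhibition reaches that limit but some replicates miss it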;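 further: 0% = plate neutral control median and 100% = total signal loss; the record names both 10 and 1 µM as test concentration; the first replicate is given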
# Target sequence (P42568 whole entry, looked up): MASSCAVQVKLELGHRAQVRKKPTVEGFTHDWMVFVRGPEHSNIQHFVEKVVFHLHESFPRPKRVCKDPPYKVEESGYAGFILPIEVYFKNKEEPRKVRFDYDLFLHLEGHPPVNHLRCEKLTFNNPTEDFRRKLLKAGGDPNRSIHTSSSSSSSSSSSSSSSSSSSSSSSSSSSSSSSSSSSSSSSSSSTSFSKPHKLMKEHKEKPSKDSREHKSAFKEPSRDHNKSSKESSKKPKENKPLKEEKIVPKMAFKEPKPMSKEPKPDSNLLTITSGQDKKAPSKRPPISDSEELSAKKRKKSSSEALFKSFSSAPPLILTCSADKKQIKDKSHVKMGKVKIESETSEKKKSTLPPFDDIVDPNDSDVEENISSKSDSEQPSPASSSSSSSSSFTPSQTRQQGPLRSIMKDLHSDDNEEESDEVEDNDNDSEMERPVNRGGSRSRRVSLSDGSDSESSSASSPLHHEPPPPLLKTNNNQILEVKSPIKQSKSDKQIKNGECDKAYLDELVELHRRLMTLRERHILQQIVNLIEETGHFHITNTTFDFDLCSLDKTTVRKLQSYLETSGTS
# RanGTP-Impb inh – disruptors of Ran-importin-beta complex formation – biochemical, FRET, CFP-Ran, YFP-importin-beta, homogeneous, primary screen. cell-free CFP-Ran/YFP-importin-beta FRET ratio. 1.1% of 300,000 active. inhibition, % (no concentration beside the values);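 active means most replicates above 15%; inconclusive means exactly half above 15%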;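 further: 0% = DMSO wells and 100% = Ran loaded with GDP instead of GTP; wells of about 40 µL received 100 nL stock; the first replicate is given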
# Ecoli growth – inhibitors of Escherichia coli growth. OD600 absorbance (test concentration not listed). OD600, 23 h; hits give low values. 0.21% of 330,000 active;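 active means OD600 absorbance below the run mean of sample wells minus 3.6 SD, in any replicate, cut at about 0.56 in these data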;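 further: stock transfer was 300 nL into about 60 µL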
# FGF22 binding – binders of recombinant human FGF22 by thermal shift | AID 651658 | 1.5% of 340,000 active | calls only at 9.99 µM | SYPRO orange fluorescence; percent of sucrose octasulfate shift, DMSO zero;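 active means melting point raised past a set limit in the mean and every replicate; inconclusive means no clear call; three in four hits are not shown here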
# Target sequence (Q9HCT0 whole entry, looked up): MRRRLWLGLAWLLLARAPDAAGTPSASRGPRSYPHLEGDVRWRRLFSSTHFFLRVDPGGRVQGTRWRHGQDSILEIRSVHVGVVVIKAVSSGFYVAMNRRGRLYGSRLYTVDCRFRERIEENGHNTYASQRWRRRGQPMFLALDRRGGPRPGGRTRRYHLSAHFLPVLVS
# Vif A3G – HIV-1 Vif–A3G interaction blockers – biochemical, TR-FRET, GST-Vif 1-94, biotin-A3G peptide, dose response retest, primary screen (AID 1117319) | TR-FRET GST-Vif / biotin-A3G peptide binding; higher % means a stronger effect; test concentration not given here; strong numbers were not always called active | inhibition, %; hits with a dose series show IC50 in µM | 0.57% of 260,000 active;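 active means above the screen mean plus three standard deviations and confirmed in dose response; inconclusive means results disagree or hit not tested in dose response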;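 further: Vif residues 1-94 fused to GST binding biotinylated APOBEC3G peptide 110-148; 0% = full assay without inhibitor and 100% = GST in place of GST-Vif; retest series ran down from 100 µM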
# Numbers without * were called inactive; i = inactive; ? = inconclusive; / = no result given.
SMILES,HNF4A DNA FP,UCH37 inh,AF4-AF9 inh,RanGTP-Impb inh,Ecoli growth,FGF22 binding,Vif A3G
CC1(c2ccc(OC(F)F)cc2)NC(=O)N(CC(=O)c2ccc3c(c2)OCO3)C1=O (stereo unspecified),0.6,-2.1,-0.9,1.3,0.63,i,-4%
COc1ccc(NC(=O)C(C)N(c2ccc(C)cc2)S(C)(=O)=O)cc1 (stereo unspecified),-4.8,1.8,/,1.7,0.69,/,0%
COC(=O)Nc1nn(-c2ccc(Cl)cc2)c(=O)c(C#N)c1C,3.7,1.7,-0.4,-0.9,0.68,i,5%
O=[N+]([O-])c1ccc(Nc2nc(NCCO)nc(N3CCCC3)n2)cc1,0.9,4.2,-3.6,1.2,0.68,i,-1%
COC(=O)c1ccc(NC(=O)c2ccc[n+]([O-])c2)cc1,3.8,0.5,0.0,1.2,0.64,i,/
COc1ccccc1Nc1ncnc2c1oc1ccccc12,0.8,-4.5,/,5.2,0.73,/,-8%
CCN(CC(=O)Nc1ccccc1C(F)(F)F)C(=O)C1CSC2(C)CCC(=O)N12 (stereo unspecified),-6.9,0.2,5.5,?,0.68,i,-4%
Cc1nnc(SCc2cccc(Oc3ccccc3)c2)n1N,-2.4,1.9,/,-2.0,0.63,/,0%
Cc1ccc(S(=O)(=O)N[C@H](C(=O)OCC(=O)NC(=O)Nc2ccc3c(c2)OCCO3)C(C)C)cc1,1.9,0.8,/,3.0,0.69,/,-2%
CCN(Cc1ccccc1)S(=O)(=O)c1ccc(C(=O)N(CCCN(C)C)c2nc3cc4c(cc3s2)OCO4)cc1,-3.2,3.3,8.8,-0.8,0.67,i,/
Fc1ccc(-n2c(Cn3nnc4ccccc43)n[nH]c2=S)cc1,-1.7,4.9,-6.0,11,0.67,i,?
Fc1ccccc1CSc1nncn1NC/C=C/c1ccccc1,0.1,-1.5,/,?,0.72,/,1%
Cc1ccccc1Nc1nc(N)nc(CN2CCN(C(=O)c3ccccc3)CC2)n1,0.4,5.7,1.8,?,0.69,i,22%
O=c1c2ccccc2nc(/C=C/c2cccnc2)n1Cc1ccccc1,-3.5,11,39*,?,0.68,i,-3%
COc1cccc(C(O)c2ncc(-c3ccc(Cl)cc3)[nH]2)c1 (stereo unspecified),0.6,/,-0.2,/,/,i,/
O=C(CCC(=O)NC1CCN(Cc2ccccc2)CC1)NCc1ccco1,2.4,7.8,/,0.0,0.7,/,12%
O=C(O)c1cc(O)ccc1O,-6.0,/,-3.6,/,/,i,/
O=C(Cc1c[nH]c2ccccc12)NCc1cccs1,-0.6,1.8,-8.1,6.0,0.66,i,/
O=c1[nH]c2cccnc2c2ccsc12,-5.8,-18,1.5,-0.3,0.65,i,10%
CCc1nn(CC(=O)N2CCN(CC)CC2)c(=O)c2cc3sccc3n12,2.1,1.6,-1.2,4.6,0.74,i,/
COCCNC(=O)c1ccc(-n2c(SCc3cc(F)ccc3F)nc3ccccc3c2=O)cc1,0.6,-0.9,/,7.8,0.68,/,16%
Cc1ccnc2nc(C(=O)OCCOc3cccc(Br)c3)nn12,3.8,2.7,/,-0.2,0.66,/,-1%
O=C(/C=C/c1ccc(S(=O)(=O)N2CCOCC2)cc1)NCc1ccccc1F,-2.2,1.1,-0.2,/,0.67,i,1%
O=C(COc1ccc2c(c1)CCC2)N1CCN(c2ccccc2F)CC1,0.4,0.7,/,0.9,0.63,/,/
Cc1ccc(CNC(=O)CSc2n[nH]c(N)n2)cc1,-0.7,2.9,/,?,0.67,/,-1%

# 3 structures already listed, sorted by molar mass, rising:
SMILES,HNF4A DNA FP,UCH37 inh,AF4-AF9 inh,RanGTP-Impb inh,Ecoli growth,FGF22 binding,Vif A3G
O=C(O)c1cc(O)ccc1O,-6.0,/,-3.6,/,/,i,/
Fc1ccc(-n2c(Cn3nnc4ccccc43)n[nH]c2=S)cc1,-1.7,4.9,-6.0,11,0.67,i,?
Cc1ccccc1Nc1nc(N)nc(CN2CCN(C(=O)c3ccccc3)CC2)n1,0.4,5.7,1.8,?,0.69,i,22%

# Next structures follow.
SMILES,HNF4A DNA FP,UCH37 inh,AF4-AF9 inh,RanGTP-Impb inh,Ecoli growth,FGF22 binding,Vif A3G
CCN(C(=O)Cc1c(C(=O)O)[nH]c2ccccc12)c1ccc(OC)cc1,-1.9,-0.1,/,-3.1,0.7,/,-6%
O=C(CSc1cccc2cccnc12)N/N=C/c1ccc(O)cc1,1.6,/,19,-1.0,/,i,-5%
O=C(OC1CCOC1=O)c1cc(-c2ccccc2)nc2ccccc12 (stereo unspecified),1.1,-20,/,-4.7,0.64,/,9%
O=C(COc1ccc(S(=O)(=O)NC2CCCCC2)cc1)NCc1ccccn1,0.9,0.0,/,3.3,0.67,/,-10%
CCOC(=O)CSc1nc(N)c(C#N)c(-c2ccc(OCC)cc2)c1C#N,2.0,-45,/,-5.7,0.7,/,-74%
CCCCn1c(N)c(N(CC(C)C)C(=O)CCCc2nc3ccccc3c(=O)[nH]2)c(=O)[nH]c1=O,4.3,-0.9,0.9,6.7,0.63,i,-3%
Cc1ccc(NC(=O)Cn2c(CCC(=O)O)ccc2-c2cccs2)cc1Cl,7.0,-1.9,-10,5.5,0.68,i,0%
O=C(COC(=O)c1ccco1)Nc1cccc(S(=O)(=O)N2CCCCC2)c1,2.7,-1.1,3.6,/,0.6,i,/
Cc1ccc(S(=O)(=O)Nc2cccc(C(=O)N3CCCC3)c2)cc1F,-0.2,1.4,0.3,-0.2,0.69,i,3%
O=C(NCc1cccnc1)C1CC(c2ccccc2Cl)=NO1 (stereo unspecified),-1.5,4.3,-0.8,-2.3,0.64,i,-4%
COc1ccc(NC2CCCN(Cc3cccc4cnccc34)C2)cc1OC (stereo unspecified),-1.4,5.6,26*,6.3,0.66,i,6%
COc1ccccc1C(=O)NCC(=O)OCC(=O)NNC(=O)c1ccc(Br)cc1,0.8,2.6,2.3,/,0.71,i,-6%
S=C(c1ccc2c(c1)OCO2)N1CCOCC1,3.0,3.9,2.6,4.5,0.64,i,/
Oc1ccccc1Oc1c(F)c(F)nc(N2CCCC2)c1F,-0.1,3.9,1.4,-2.4,0.65,i,27%
COc1ccc(CCNS(=O)(=O)CC23CCC(CC2=O)C3(C)C)cc1OC (stereo unspecified),-0.8,2.9,-4.1,0.4,0.71,i,/
O=C(O)COCc1nc2ccccc2s1,0.1,2.1,-1.6,-1.5,0.71,i,-8%
CN(CC(=O)Nc1ccc(C(N)=O)cc1)CC(=O)Nc1ccccc1Br,1.7,0.0,-2.7,0.0,0.71,i,-4%
O=C1NC2(c3ccccc3)NC(=O)NC2(c2ccccc2)N1 (stereo unspecified),1.4,5.4,-6.3,/,0.68,i,-12%
COc1ccc(C(=O)NCC(=O)OCc2ccc([N+](=O)[O-])cc2)cc1,-3.8,0.0,2.2,4.5,0.67,i,-9%
COc1ccc(S(=O)(=O)N2CCOCC2)cc1NC(=O)COC(=O)CCS(=O)(=O)c1ccc(C)cc1,1.3,-0.6,-1.1,/,0.71,i,/
CCCC(=O)Nc1nc2nc(-c3ccccc3)cc(-c3ccccc3)n2n1,-1.8,-76,/,-0.4,0.71,/,6%
Cc1ccc(C(=O)CN(CCC(=O)O)S(=O)(=O)c2ccc([N+](=O)[O-])cc2)cc1,-3.9,3.5,-1.0,/,0.66,i,/
Cc1ccc(CN(c2ccc(C(=O)N3CCc4ccccc4C3)cc2)S(C)(=O)=O)cc1,-1.2,3.3,/,-1.4,0.73,/,22%
CCN(CC)S(=O)(=O)c1cccc(-c2nnc(SCCOc3ccccc3)o2)c1,-1.6,2.1,/,-1.6,0.71,/,-7%
CCC(=O)N1CCCC(C)(C(=O)Nc2nccc3cccnc23)C1 (stereo unspecified),-0.2,/,-4.3,/,/,i,/

# Just UCH37 inh, HNF4A DNA FP and Ecoli growth, for some of the entries so far:
Compound	UCH37 inh	HNF4A DNA FP	Ecoli growth
O=C(COC(=O)c1ccco1)Nc1cccc(S(=O)(=O)N2CCCCC2)c1	-1.1	2.7	0.6
Cc1ccc(S(=O)(=O)Nc2cccc(C(=O)N3CCCC3)c2)cc1F	1.4	-0.2	0.69
O=C(NCc1cccnc1)C1CC(c2ccccc2Cl)=NO1 (stereo unspecified)	4.3	-1.5	0.64

# Other results
SMILES,HNF4A DNA FP,UCH37 inh,AF4-AF9 inh,RanGTP-Impb inh,Ecoli growth,FGF22 binding,Vif A3G
COc1ccc(/C=C2\Oc3cc(OCC(=O)N4CCC(C(=O)O)CC4)ccc3C2=O)c(OC)c1,37,3.1,/,-45,0.75,/,/
COc1cc(NC(=O)c2ccco2)c(OC)cc1NC(=O)CCC(=O)Nc1cc(C)ccc1C,0.2,-298,/,/,0.74,/,-13%
O=C(O)C1CCN(C(=O)CSc2nc3ccccc3s2)CC1,2.4,2.3,-0.3,-1.5,0.72,i,19%
COc1ccc(N(Cc2cc(=O)[nH]c3ccccc23)C(C)=O)cc1,-4.1,0.2,-0.6,-2.9,0.66,i,0%
COc1ccccc1NCC(=O)N/N=C/c1sccc1C,-0.5,/,1.5,5.4,/,i,-1%
CCN1CCN(C(=O)C2=C(C(=O)O)CCCC2)CC1,4.8,0.8,/,-1.1,0.72,/,17%
COC(=O)c1ccc(NC(=O)CCS(=O)(=O)c2ccc(C)cc2)cc1,4.9,3.5,0.6,2.6,0.7,i,2%
COc1cccc(/C=N/NC(=O)C(=O)Nc2ccccc2OC(F)(F)C(F)F)c1O,2.8,/,-1.4,-2.2,/,i,?
O=Cc1ccc(Oc2cnccn2)cc1,4.5,5.1,0.2,-1.6,0.7,i,/
c1cncc(CNc2cccc(-c3nc4ccccc4[nH]3)c2)c1,0.5,-41,6.8,-1.8,0.6,i,1%
Cn1cc(/C=C2\SC(=O)N(c3ccccc3)C2=O)c2ccccc21,3.4,3.8,/,-18,0.7,/,9%
CN1OC[C@@H]2CN(Cc3ccccc3)[C@H](c3ccc(-n4ccnc4)cc3)C[C@@H]21,0.6,/,7.1,/,/,i,/
CN1CCN(C(=O)C2=NOC3(C2)C(=O)Nc2ccccc23)CC1 (stereo unspecified),-16,/,-1.1,/,/,i,/
O=C(CSc1nc2ccccc2o1)N1CCN(S(=O)(=O)c2ccc3ccccc3c2)CC1,-3.5,4.4,/,-2.7,0.63,/,12%
COC(=O)Cc1c(C)c2ccc(OCc3nn[nH]n3)cc2oc1=O,2.6,-299,/,-2.4,0.74,/,?
C=CCC(C#N)(c1ccc(OC)c(OC)c1)c1cnccn1 (stereo unspecified),2.1,0.7,-1.7,1.4,0.69,i,/
COc1cccc(/C=C2\SC(=S)NC2=O)c1OS(=O)(=O)c1ccc(NC(C)=O)cc1,12,10,/,?,0.68,/,22%
COc1ccc(NC(C)=O)cc1S(=O)(=O)NCCc1ccccn1,2.6,4.1,0.3,/,0.67,i,20%
CCc1cc2c(=O)n(CC(=O)NC3CCCCC3)cnc2s1,3.5,0.9,-0.2,5.4,0.7,i,0%
O=C(C[C@@H]1C/C=C\CC[C@H](Cc2ccc(F)cc2)C(=O)OC[C@@H]2CCCN2C1=O)N[C@H](CO)Cc1ccccc1,1.4,3.0,2.2,/,0.71,i,-3%
O=C(COc1ccccc1[N+](=O)[O-])NCC1COc2ccccc2O1 (stereo unspecified),2.2,5.2,3.1,/,0.71,i,4%
Cc1ccc(-c2nn(CC(N)=O)c(=O)c3ccccc23)cc1S(=O)(=O)N(C)C,0.8,3.7,/,-4.7,0.71,/,14%
COCCCNCCOc1ccc(C)cc1[N+](=O)[O-],-2.1,/,/,?,/,/,4%
COC(=O)[C@@]1(Cc2ccc(OC)cc2)[C@H]2c3cc(C(=O)N(C)C)n(Cc4c(CO)[nH]cc(C)c4=O)c3C[C@H]2CN1C(=O)c1ccccc1,-1.1,-0.1,1.3,6.6,/,i,/
COc1ccccc1C(=O)NCCn1ccc2ccccc21,-2.5,1.3,/,0.3,0.77,/,2%

# The list is partial. The share of hits here may be higher or lower than overall.
